Screens as filed in PubChem BioAssay.
Ecoli growth – E. coli growth inhibition, primary screen, OD600; Escherichia coli growth, 23 h; hits give low values; OD600 absorbance (test concentration not listed); 330,000 tested, 0.21% active; AID 1053175, 2014;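 active means OD600 absorbance below the run mean of sample wells minus 3.6 SD, in any replicate, cut at about 0.56 in these data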;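 further: stock transfer was 300 nL into about 60 µL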
UCH37 inh – inhibitors of human UCH37 deubiquitinase, primary screen, biochemical, Ub-AMC cleavage, fluorescence; Ubiquitin carboxyl-terminal hydrolase isozyme L5 (Homo sapiens), Q9Y5K5; inhibition, % (no concentration beside the values); AID 588478, 2011; purified proteasome/UCH37; 330,000 tested, 0.33% active;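 active means mean of two replicates above 20%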;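 further: 0% = compound-free wells with enzyme and 100% = wells lacking proteasome; stock transfer was 100 nL into about 20 µL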
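Material: Human UCH37 enzyme supplied as purified proteasome complex | Schedule: 30 min compound-proteasome preincubation then 25 min substrate reaction, room temperature | Detection: AMC fluorescence from Ub-AMC cleavage, excitation 355 nm, emission 460 nm | Benchmarks: Wells without proteasome as full block, compound-free enzyme plus substrate as uninhibited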
rRNA inh HTS – reduced GFP signal of wild-type E. coli, primary screen, bacterial rRNA inhibitor project, GFP/RFP fluorescence, OD600, single point | 350,000 tested, 1.6% active | AID 720706, 2013 | E. coli WT GFP vs humanized-ribosome RFP mutants, 24 h; hits give low values; DMSO median 0, no signal -100 | GFP signal change (wild-type ribosome), % (concentration not given with the values);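 active means significant combined selectivity score with lowered wild-type GFP, culture density cut under 30%, mutant RFP and density less affected; inactive means any of these conditions unmet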; further: one replicate is shown; some compounds called inactive have numbers as strong as hits
Beta cell apopt – inhibitors of cytokine-induced beta cell apoptosis, primary screen, luminescence; INS-1E cytokine-induced death, ATP luminescence, 48 h; percent of positive-control rescue, neutral wells zero; protection from apoptosis, % (no concentration beside the values); 300,000 tested, 0.8% active; AID 435005, 2010;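 active means all replicates at 75% or more, or half of them and the mean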;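 further: 0% = cytokine-treated negative control wells and 100% = positive control rescue; higher means more ATP so stronger rescue from cytokine killing; wells of about 40 µL received 100 nL stock; the first replicate is given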
AF4-AF9 inh – inhibitors of AF4 peptide binding to AF9, primary screen, biochemical, AlphaScreen, biotin-AF4 peptide, FLAG-AF9, single point; AID 651704, 2012; 350,000 tested, 0.47% active; inhibition, % at 10 µM;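 active means every replicate reaching a set inhibition limit, whatever the replicate mean, cut at about 25% in these data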;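 further: 0% = plate neutral control median and 100% = total signal loss; the record names both 10 and 1 µM as test concentration; the first replicate is given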
Target sequence (P42568 whole entry, looked up): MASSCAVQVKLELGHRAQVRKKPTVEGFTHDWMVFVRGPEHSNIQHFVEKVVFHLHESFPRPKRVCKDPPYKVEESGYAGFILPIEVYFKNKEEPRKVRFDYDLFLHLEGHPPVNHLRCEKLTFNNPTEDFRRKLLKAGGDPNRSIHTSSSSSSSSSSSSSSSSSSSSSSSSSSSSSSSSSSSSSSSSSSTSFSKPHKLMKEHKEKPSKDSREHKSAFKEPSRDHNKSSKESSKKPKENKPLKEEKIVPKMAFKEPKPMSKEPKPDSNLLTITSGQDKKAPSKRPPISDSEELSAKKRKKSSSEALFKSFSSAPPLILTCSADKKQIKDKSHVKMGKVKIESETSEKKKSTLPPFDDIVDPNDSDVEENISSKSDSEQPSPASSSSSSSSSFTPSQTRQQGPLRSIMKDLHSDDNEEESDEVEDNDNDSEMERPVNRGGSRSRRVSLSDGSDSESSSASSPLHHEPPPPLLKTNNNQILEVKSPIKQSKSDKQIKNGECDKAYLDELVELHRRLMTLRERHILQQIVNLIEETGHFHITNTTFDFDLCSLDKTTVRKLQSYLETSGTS
FGF22 binding – binders of human FGF22 protein, primary screen, FGF22 synaptogenesis inhibitor project, biophysical, thermal shift, single point; AID 651658, 2012; Fibroblast growth factor 22 (Homo sapiens), Q9HCT0; 340,000 tested, 1.5% active; recombinant FGF22 thermal shift, SYPRO orange fluorescence; percent of sucrose octasulfate shift, DMSO zero; calls only at 9.99 µM;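 active means melting point raised past a set limit in the mean and every replicate; three in four hits are not shown here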
Target sequence (Q9HCT0 whole entry, looked up): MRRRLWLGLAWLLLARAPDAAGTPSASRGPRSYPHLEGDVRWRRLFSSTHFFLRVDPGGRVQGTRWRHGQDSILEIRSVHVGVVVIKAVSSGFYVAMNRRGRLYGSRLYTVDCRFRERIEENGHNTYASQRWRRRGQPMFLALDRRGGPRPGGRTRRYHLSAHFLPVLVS
Bfl-1 A1 inh – caspase 3/7 activation in MEF A1-2A-BIM cells, primary screen, A1 inhibitor project, cell-based, luminescence, HTS; Caspase-Glo 3/7 luminescence, 3 h; percent of clofoctol response, vehicle zero; caspase activation, % (concentration not given with the values); 330,000 tested, 0.066% active; AID 2462, 2010;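 active means over half of replicate activation scores above 10%, or exactly half above 10 with the replicate mean above 10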;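 further: wells of about 30 µL received 50 nL stock; many hits fall short of the cut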
T cruzi inh – inhibitors of intracellular T. cruzi growth, primary screen, luminescence, NIH3T3 host cells | T. cruzi beta-gal in NIH3T3, 90 h | inhibition, % (concentration not given with the values) | 300,000 tested, 1.4% active | AID 1885, 2009;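 active means mean inhibition across valid replicates above about 55%, limit read from the data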;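 further: signal also drops with host cell toxicity which is not excluded here; 0% = plate median of DMSO wells and 100% = zero luminescence signal; higher percent means less beta-gal luminescence so fewer parasites; stock transfer was 50 nL into about 50 µL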
rRNA inh HTS OD600 – recorded beside rRNA inh HTS, whose call it bears; OD600 change, %; measured here: OD600 growth;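 optical density of the mix in the first replicate; 0 = DMSO median and -100 = no signal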
rRNA inh HTS RFP – second read-out of rRNA inh HTS, no call of its own (marks repeat the call); RFP signal change, %; measured here: RFP humanized mutant strains;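 first replicate; 0 = DMSO median and -100 = no signal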
* marks the source's active call; other numbers are inactive results; i = inactive; . = no result given.

smiles,Ecoli growth,UCH37 inh,rRNA inh HTS,rRNA inh HTS OD600,rRNA inh HTS RFP,Beta cell apopt,AF4-AF9 inh,FGF22 binding,Bfl-1 A1 inh,T cruzi inh
CCN1CCN(c2ccc(NC(=O)c3ccco3)cc2Cl)CC1,0.69,5.9,7,6,5.1,.,-0.2,i,-4.5,4
O=C(/C=C/c1ccc(Br)o1)OCc1ccccc1,0.71,2.1,.,.,.,1,.,.,-0.1,-7
O=C(OCn1nnc2ccccc2c1=O)C1COc2ccccc2O1 (stereo not given),0.68,4.3,16,20,2.3,-5,-13,i,0.0,4
CN1C(=O)C2(OCCCO2)c2ccccc21,0.68,-0.6,1,6,-1.7,-12,1.3,i,0.8,-5
Cn1c(=O)c2c(nc(N3CCOCC3)n2CCc2ccccc2)n(C)c1=O,0.71,-0.1,17,13,1.6,5,-2.1,i,0.2,-5
CCOC(=O)c1cc(-c2ccccc2)nn1Cc1cc(C)no1,0.74,2.7,-18,-14,1.6,2,-3.0,i,-1.7,-4
CC(Sc1nnc(C2CC2)n1C1CC1)C(=O)c1ccc(Br)cc1 (stereo not given),0.68,0.8,5,-9,2.4,.,-0.7,i,.,.
CCCCCCCC(=O)NNC(=O)c1c(O)c2ccccc2n(CCC)c1=O,0.71,4.9,11,14,-7.7,.,-3.1,i,-0.2,-19
Cn1ncc2c(Nc3cccc(C(=O)O)c3)ncnc21,0.7,1.9,.,.,.,1,.,.,-0.3,-8
O=C(Nc1ccccc1)N1CCN(S(=O)(=O)c2ccccc2)CC1,0.7,1.1,-2,-2,-0.7,1,0.0,i,-1.1,1
N#Cc1nc(-c2ccco2)oc1N1CCC(C(N)=O)CC1,0.62,-40,8,5,0.9,-7,.,.,-0.4,-23
COc1cccc(N(CC(=O)NC(C)c2ccccc2)S(C)(=O)=O)c1 (stereo not given),0.69,1.5,.,.,.,-1,.,.,0.9,-14
Cc1cc(SCC(=O)NC(=O)NCc2ccco2)nc2c(C)cccc12,0.69,3.8,.,.,.,1,.,.,0.3,-2
COc1ccc2c(c1)[C@H]1[C@H](CO2)[C@H](c2ccccc2)[C@]2(C)C(=O)Nc3cc(F)ccc3C(=O)N12,.,.,-4,-25,-7.0,9,-2.8,i,-0.2,.
O=S(=O)(c1cccc(-c2csc(N/N=C/c3ccco3)n2)c1)N1CCOCC1,.,.,-23*,-8.1*,8.3*,-1,13,i,-0.6,-9
COc1ccc(OC)c(CN2CCC(N3CCC(C(=O)NC4CC4)CC3)CC2)c1,0.7,0.8,16,4,3.5,-6,2.6,i,0.1,16
COCNc1nc(OCC#N)nc(N(C)C)n1,0.64,0.1,.,.,.,0,.,.,1.1,-8
COc1ccc(CNC(=O)CCC(=O)Nc2cccnc2)cc1,0.69,6.2,21,13,0.1,0,1.1,i,0.0,1
COc1cccc(/C(N)=N/OC(=O)Cc2ccccc2[N+](=O)[O-])c1,0.7,4.7,-2,-3,-10,-3,-9.5,i,0.1,1
Clc1cccc(NCc2cn3cccnc3n2)c1,0.69,1.3,-47,-70,-5.5,-1,1.9,.,0.5,-4
Cc1c(Cl)cccc1NC(=S)N1CCN(c2ccccn2)CC1,0.72,3.2,9,6,-0.3,5,-1.6,i,-1.2,-16
CCc1ccccc1NC(=O)Cn1ccn(-c2ccc(OC)cc2)c(=O)c1=O,0.67,1.9,14,17,-0.4,-3,-3.3,i,-0.7,2
CC(C(=O)OCn1nnc2ccccc2c1=O)N1C(=O)c2ccccc2C1=O (stereo not given),0.7,0.6,.,.,.,2,.,.,1.1,-5
CCn1c(CNC(=O)COc2ccc(C(C)C)cc2)nnc1SCC(=O)Nc1ccccc1,0.68,0.3,.,.,.,-2,.,.,1.8,3
CN(C(=O)COC(=O)CNC(=O)C12CC3CC(CC(C3)C1)C2)c1ccccc1,0.73,1.5,6,5,1.3,-7,-1.0,i,2.1,-18
CC(C)(C)c1ccc(C(=O)c2cn[nH]c2-c2ccccc2O)cc1,0.64,3.3,-22*,-16*,-6.0*,1,2.2,i,-0.2,0
CCc1noc(C)c1C(=O)N(C)CC(=O)Nc1ccccc1C(F)(F)F,0.69,5.9,0,8,-5.2,-2,-22,i,0.3,4
CN(C)S(=O)(=O)c1cccc(NC(=S)NC23CC4CC(CC(C4)C2)C3)c1,0.68,2.0,0,-11,4.2,.,0.2,i,0.7,8
COc1ccc(NS(=O)(=O)c2ccc(N)c(C(=O)O)c2)cc1,0.79,-1.4,0,12,-1.6,-6,.,.,0.3,-16
CN(CC(=O)N1CC=C(c2ccccc2)CC1)S(=O)(=O)c1cnc[nH]1,0.75,-0.2,.,.,.,-2,.,.,0.5,11

Next part, overlapping the part above by 2 compounds.
smiles,Ecoli growth,UCH37 inh,rRNA inh HTS,rRNA inh HTS OD600,rRNA inh HTS RFP,Beta cell apopt,AF4-AF9 inh,FGF22 binding,Bfl-1 A1 inh,T cruzi inh
COc1ccc(NS(=O)(=O)c2ccc(N)c(C(=O)O)c2)cc1,0.79,-1.4,0,12,-1.6,-6,.,.,0.3,-16
CN(CC(=O)N1CC=C(c2ccccc2)CC1)S(=O)(=O)c1cnc[nH]1,0.75,-0.2,.,.,.,-2,.,.,0.5,11
O=C(Nc1nc(-c2ccccc2)cs1)C1CCCN(S(=O)(=O)c2cccc([N+](=O)[O-])c2)C1 (stereo not given),0.69,0.4,.,.,.,.,.,.,0.5,74*
CN(C)S(=O)(=O)c1ccc(N2CCCC2)c(C(=O)Nc2ccccc2OC(F)F)c1,0.7,-2.1,-8,-10,-4.1,0,-8.8,i,0.2,5
CCOc1ccc(N2CC(C(=O)Nc3cccc(C(=O)NC4CC4)c3)CC2=O)cc1 (stereo not given),0.7,3.0,3,12,-1.3,.,-8.0,i,.,.
CN(CCCC(=O)N1CCN(c2ncccn2)CC1)S(=O)(=O)c1ccc(F)cc1,0.66,0.7,-1,-9,1.3,1,-0.9,i,0.6,.
Cc1ccc(-n2nnnc2SCC(=O)N(CC(C)C)c2c(N)n(CC(C)C)c(=O)[nH]c2=O)cc1,0.71,2.0,0,-2,-5.0,5,-0.8,i,-0.7,17
COc1cccc(NC(=O)CCCOc2cc(=O)n(C)c3ccccc23)c1,0.66,-2.2,.,.,.,4,.,.,1.2,-6
COc1cc(CC(=O)N2CCN(S(=O)(=O)c3ccc(C)cc3)CC2)cc(OC)c1OC,0.7,-1.7,5,9,14,4,-3.5,i,1.1,.
Cc1cccc2cc(CN(Cc3ccco3)C(=O)Nc3cccc(C#N)c3)c(Cl)nc12,0.72,3.4,6,9,29,11,7.3,i,1.0,60*
Cc1cc(C)c2nc3c(c(C(=O)O)c2c1)CCC3,0.69,-6.3,.,.,.,-8,.,.,0.4,-13
CCOc1ccc(NC(=O)CCCN2C(=S)NC(C)(C)CC2C)cc1 (stereo not given),0.69,3.6,.,.,.,0,.,.,0.4,6
COc1ccc(OC)c(NS(=O)(=O)Cc2ccccc2)c1,0.66,-0.7,.,.,.,3,.,.,1.4,27
C=CC#CC[N+]1(CC#Cc2ccccc2)CCOCC1,0.67,29*,14,20,6.9,.,97*,i,.,-16
CCn1c(SCC(=O)N/N=C/C(C)=C\c2ccco2)nnc1-c1ccccc1,.,.,20,16,-1.8,-3,-5.4,i,-0.2,0
O=S(=O)(c1ccc2ccccc2c1)N(CC(O)COCc1ccco1)c1ccccc1 (stereo not given),0.66,2.7,.,.,.,2,.,.,-0.1,-6
COc1cccc(OCC(=O)NNC(=O)C(=O)N2CCCC2)c1,0.72,3.8,-4,-2,-1.2,-2,4.0,i,0.5,-2
C=CCNC(=O)c1ccc2c3n(nc2c1)-c1ccc(Cl)cc1CO3,0.68,0.5,-14,-2,-8.8,7,-30,i,-7.5,0
CCOC(=O)c1nc2ccccc2c(=O)[nH]1,0.67,3.0,19,17,-3.8,-1,-54,i,-0.5,5
O/N=C/c1cn(-c2ccccc2)nc1-c1cccnc1,.,.,1,-17,-1.9,-7,1.0,i,0.4,-6
CC(C)CCNC(=O)C1CCC(CNS(=O)(=O)c2ccc(Cl)cc2)CC1 (stereo not given),0.66,0.1,6,7,0.8,-2,-3.0,i,1.5,-19
O=C(O)CCC(=O)N1CCN(c2nc(-c3ccccc3)c3ccccc3n2)CC1,0.65,-87,-8,-17,-0.9,-10,-2.3,i,0.5,-6
Cc1nc2c(=O)[nH]c3ccccc3c2o1,0.72,4.7,10,4,-0.9,-2,-2.0,.,-0.1,0
COc1ccc(CCNC(=O)Cc2ccc(OCc3ccccc3)c(OC)c2[N+](=O)[O-])cc1OCc1ccccc1,0.76,3.0,.,.,.,.,.,.,0.5,7
CN(CC(=O)Nc1ccc(N2CCOCC2)cc1)C(=O)c1cccc(Cl)c1Cl,0.69,4.7,-1,0,-2.3,-1,11,i,-0.3,8
CO/N=C\CC(=O)Nc1ccc(Oc2ccccc2)cc1,.,.,-5,-4,-3.2,-9,1.6,i,-0.1,-43
O=C(Cc1csc(-c2ccc(F)cc2)n1)Nc1cccc(S(=O)(=O)NC2=NCCC2)c1,0.69,3.2,-13,-5,-0.3,-8,1.1,i,0.7,.

Only part of the results is shown (hit frequency here may not be typical).
